High-throughput results from PubChem.
NPYLR7 ag: activates Aedes aegypti NPYLR7 receptor | HEK293T NPYLR7/Galpha15, GCaMP6s calcium fluorescence | activation, % at 10 µM | hit rate 0.15% among 270,000; in the data active = activation above about 40%;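 also: 0% = vehicle and 100% = reference agonist at the receptor; some compounds past the cut are filed as inactive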
NPYLR7 ag max-min: recorded beside NPYLR7 ag, whose call it bears; activation, %; measured here: Max-Min RFU normalised activation; some inactives read as strong as hits;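 span of the calcium signal over five minutes; 0% = vehicle and 100% = native peptide agonist; compound fluorescence can raise it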
The depositor's hits bear a star; & = joins results of further samples. These rows are one share of the data; rates above refer to the full screens.

A first look (2 entries):
SMILES | NPYLR7 ag | NPYLR7 ag max-min
COCCN(Cc1cccs1)C(=O)c1cn2cc(Cl)ccc2n1 | 0 | -2
CCn1cc2c(c1-c1ccccc1)c(=O)n(C)c(=O)n2C | -3 | -4

Main list, from the first entry:
SMILES | NPYLR7 ag | NPYLR7 ag max-min
COCCN(Cc1cccs1)C(=O)c1cn2cc(Cl)ccc2n1 | 0 | -2
CCn1cc2c(c1-c1ccccc1)c(=O)n(C)c(=O)n2C | -3 | -4
CC(C)(C)c1cc2nc(C(=O)N3CCN(Cc4ccccc4)CC3)cc(-c3ccccc3F)n2n1 | 10&19 | 14&17
CCOC(=O)CCC(=O)N(Cc1ccc(F)cc1)C(C)C(=O)c1c(C)c(C(=O)OC)n(C)c1C (stereo not drawn) | -14 | -12
COc1cccc(Cc2nsc(N3CCCN(C(=O)N(C)C)CC3)n2)c1 | 10 | 20
Cc1ccsc1C(=O)N1CCC1(C)C(=O)NC1CCCC1 (stereo not drawn) | 3 | -1
COc1ccc(S(=O)(=O)N2CCCC(C)C2)cc1N1CCN(C(=O)/C=C/c2ccccc2Cl)CC1 (stereo not drawn) | 28 | 27
O=C(Nc1cc(-c2ccccc2)nn1-c1cc(Cl)ccc1Cl)c1ccccc1C(F)(F)F | -1 | 5
CCCCC1C(=O)N(c2nc(C)cc(C)n2)N=C1C (stereo not drawn) | 10 | -1
CC(c1ccccc1)N(C)C(=O)c1ccc2c(c1)S(=O)(=O)N=C1CCCCCN12 (stereo not drawn) | 5 | 5
COc1nc(-c2ccccc2C)n(-c2cccc(NC(=O)c3ccc(F)cc3)c2)n1 | 21 | 31
c1cncc(-c2noc(C3CCCN(C4CCC5(CCNCC5)CC4)C3)n2)c1 (stereo not drawn) | -1&-11 | 0&-14
Cc1ccn(CC(=O)N2CCC3(CCCN(CCCc4ccccc4)C3)C2)n1 (stereo not drawn) | 7 | 7
CS(=O)(=O)N1CCC(C(=O)Nc2nc3ccccc3s2)CC1 | 1 | -1
COc1ccc(Nc2nccc3[nH]c(-c4cccc(OC)c4F)nc23)cc1 | -4 | -9
O=C(NC1CC1)c1cc2n(n1)CCN(Cc1ccccc1C(F)(F)F)C2=O | -5 | 8
COc1ccc(Cc2nnc(N3CCOCC3)[nH]c2=O)cc1 | 10 | 5
O=C(Nc1ccccc1)c1ccc(Br)c(S(=O)(=O)NC2CCCCC2)c1 | 8 | 6
CC(C)CC(=O)Nc1ccnn1C1CCN(C(=O)CCc2ccccc2Cl)CC1 | 17 | 5
O=c1[nH]c(Cc2ccc(C(F)(F)F)cn2)nc2sc3c(c12)CCC3 | -4 | -6
CN(Cc1ccco1)C(=O)C(C1CCCC1)N1CCN(C(=O)Nc2ccccc2)CC1 (stereo not drawn) | 8 | 5
COc1ccccc1N1CCN(C2CCCN(C(=O)c3cc4ccccc4n3C)C2)CC1 (stereo not drawn) | -11 | -12
Cc1cccc(C)c1OCc1cc(C(=O)NCc2cnc3ccccc3c2)no1 | 2 | -3
COCC(NC(=O)Cc1cccnc1)c1ccnn1C (stereo not drawn) | 8 | 5
CCN(CC1CCCN(CCc2cccc(F)c2)C1)C(=O)c1ccc2[nH]ccc2c1 (stereo not drawn) | 2 | 1
COc1ccc(C2=NN(C(C)=O)C(c3c(OC)ccc4ccccc34)C2)cc1 (stereo not drawn) | 0 | 1
CCc1cc(N2CCCC2)nc(SCc2ccc(C(=O)N3CCOCC3)o2)n1 | -8 | -1
O=C(COCC(=O)N1CCOCC1)N1CCOCC1 | -2 | -2
CC1Cc2cc(-c3cc(CNC(=O)/C=C\c4ccccc4)no3)ccc2O1 (stereo not drawn) | 3 | 2
NC(=O)Cn1c(C2CC2)nnc1S(=O)(=O)Cc1ccc(F)c(Br)c1 | 2 | 1
O=C(Nc1cccc(-c2cccc(F)c2)c1)C1CCN(CCCn2cccn2)CC1 | 12 | 8
CCOc1cc(/C=C/C(=O)N2CCOc3ccccc32)ccc1OC(F)F | 7 | 2
COc1ccc(NC(=O)Cn2nc(C)c([N+](=O)[O-])c2C)c(OC)c1 | -6 | -16
Cc1ccc(OCc2cc(C(=O)N(C)CCc3c(C)n[nH]c3C)no2)cn1 | 4 | 1
Cc1ccc(-c2cc(C(=O)N3CCC(C(N)=O)CC3)n(C)n2)cc1C | -8 | -17
CC(C)c1ccccc1OC1CC2CCC(C1)N2C(=O)c1ccc(CSc2nc3ccccc3o2)cc1 (stereo not drawn) | 15 | -3
CCOC(=O)C1CCCN(CC(=O)N2N=C(c3cccc(OC)c3)CC2c2ccccc2Cl)C1 (stereo not drawn) | 17 | 11
C#CCn1c(=NC(=O)C2CCCN2S(=O)(=O)c2cccs2)sc2cc(C(=O)OC)ccc21 (stereo not drawn) | 3 | 1
CCCCc1ccc(NC(=O)CSc2nc(CCC)nc3c2c(=O)n(C)c(=O)n3C)cc1 | 8 | 11
CNc1nc2cnc(Nc3cccc(O)c3)cc2n1-c1ccccc1 | 7 | -3
CC(C)C(=O)N1CCN(C(=O)c2cc(-c3ccccc3Cl)nc3ccccc23)CC1 | -4 | -5
Cc1cnc(C(NC(=O)C2CC2c2ccccc2)C2CC2)s1 (stereo not drawn) | -1 | -1
COc1ccc(-n2nnnc2-c2cnc(C(C)(C)C)nc2C(F)(F)F)cc1 | 5 | 6
COc1ccc(NC(=O)C(C2CCCC2)N2CCN(C(=O)c3cccc(OC)c3)CC2)cc1 (stereo not drawn) | -2 | 2
COc1ccc(C(=O)Nc2ccc(Cc3ccncc3)cc2)cc1[N+](=O)[O-] | 5 | 6
O=C(CCN(Cc1ccco1)c1nc(-c2cccc(Br)c2)nc2ccccc12)Nc1cccc(F)c1 | 6 | 13
COc1ccc(CCN2C3CCC2CC(NC(=O)c2cc(C(F)(F)F)cc(C(F)(F)F)c2)C3)cc1OC (stereo not drawn) | 21 | 11
COc1cccc(CN2C(=O)C3(SCCN3C(=O)C3CC3)c3cc(C)ccc32)c1 (stereo not drawn) | 1 | 5
CCC(C)C(NC(=O)c1ccccc1Br)C(=O)Nc1nnc(-c2cccc(Cl)c2)s1 (stereo not drawn) | 17 | 15
Cc1nnc(SCc2ccc(C(=O)NCc3cccc(C(F)(F)F)c3)cc2)n1-c1ccc(F)cc1 | 9 | 12
Cc1noc(C)c1CCC(=O)Nc1sc2c(c1C#N)-c1ccccc1CC2 | 1 | 0
O=C(O)C1CCN(c2nc(Cc3ccc(F)cc3)ns2)CC1 | 4 | 12
Cc1ccc(Nc2nc(NCc3ccco3)nc3nccnc23)c(C)c1 | 2 | 1
Cc1ccccc1OCC(=O)N1N=C(C2CCCCC2)CC1(O)C(F)(F)F (stereo not drawn) | 0 | 0
CCc1cnc2c(c1OC)c(=O)n(CC(=O)N1CCC(C)CC1)c(=O)n2C | 2 | 1
CCOc1ccc(C2=NC(=Cc3ccc(F)cc3)C(=O)O2)cc1 | 3 | 4
O=C1OC(c2cccc(I)c2)=N/C1=C\C=C\c1ccccc1 | -1 | -8
CC(=O)Nc1ccc(SCc2ccc(C(=O)N3C4CCC3CC(Oc3ccc5c(c3)OCO5)C4)cc2)cc1 (stereo not drawn) | -10 | -12
CCOC(=O)c1c(C)n(-c2ccc(OCC)cc2)c2ccc(OC)cc12 | -6 | -14
COc1ccc(Nc2nc(NN)nc(N3CCOCC3)n2)cc1 | -8 | -13

New compounds follow:
SMILES | NPYLR7 ag | NPYLR7 ag max-min
Cc1ccc(C)c(C(O)c2ncc(-c3ccc(C(F)(F)F)cc3)[nH]2)c1 (stereo not drawn) | 0 | 0
Cc1n[nH]c(C)c1NC(=O)COc1ccc(Cl)cc1Cl | -15 | -18
CCCn1nc(C(=O)N(CCOC)c2nc3ccccc3s2)ccc1=O | -5 | -10
CCCCCCc1ccc(C(=O)N(CC(=O)Nc2cc(-c3ccccc3)nn2-c2ccc(F)cc2)Cc2ccccc2)cc1 | -5 | -9
CCc1cc(C(=O)N2CCCC(N3CCN(c4cccc(C(F)(F)F)c4)CC3)C2)n(C)n1 (stereo not drawn) | 1&7 | -3&5
OC1CCCc2c(OCc3nnnn3C3CC3)cccc21 (stereo not drawn) | 0 | -2
O=C1NC2(CCN(C(=O)c3ccccc3Cl)CC2)Nc2ccc(Cl)cc21 | 4 | 12
O=C(CCN1CCC(Cn2cccn2)CC1)Nc1cccc(F)c1 | 5 | -1
COc1cc(C(=O)Nc2cccc(NC(C)=O)c2)cc(Cl)c1O | 2 | 11
O=C(CCOc1ccc(Cl)cc1)N1CCOC(COCc2ccccc2F)C1 (stereo not drawn) | 21 | 21
CSCC[C@H](NC(C)=O)C(=O)N1CCC(CCC(=O)Nc2cccc(C)c2)CC1 | 8 | 0
OC1CCN(c2ccnc(N3CCC(O)(c4ccc(Cl)cc4)CC3)n2)C1 (stereo not drawn) | -13 | -14
CC(=O)N1N=C(c2ccccc2)OC1C(=O)N(C)C1CCN(C)CC1 (stereo not drawn) | 15 | 8
CCC(CC)C(=O)N(CC(=O)NCC(=O)Nc1cccc(C)c1)Cc1ccco1 | -4 | 7
CC(NC(=O)Nc1ccc2c(c1)OCO2)c1ccc(-n2cncn2)cc1 (stereo not drawn) | 7 | -1
CC(=O)NC1=NN(C(C)=O)C(c2ccco2)S1 (stereo not drawn) | 6 | 3
O=C1C(=O)c2c(C(=O)c3ccccc3)coc2C(Cl)=C1Cl | -2 | -7
CCC1(C)NC(=O)N(NC(=O)Cn2cnc3c2c(=O)n(C)c(=O)n3C)C1=O (stereo not drawn) | -2 | 3
CN(C)C(=O)Cn1ccc2cc(NC(=O)N3CCSCC3)ccc21 | 5 | 2
O=C(Cn1cccc(-c2nc(-c3ccc(Br)cc3)no2)c1=O)NCc1ccco1 | 4 | 0
CCOc1ccc(N2C(=O)CSC2c2ccccc2N)cc1 (stereo not drawn) | -7 | 2
Cc1nc(CCNC(=O)C2CC(=O)N(CC(C)C)C2)nc2c1CCC2 (stereo not drawn) | -3 | -4
COC(=O)Cn1c(Br)nc2c1c(=O)n(C)c(=O)n2C | 9 | 8
CCOc1ccc(OCCSc2nc3ccccc3n2CCOc2ccc(C)cc2)cc1 | -11 | -17

Given with tabs: part of the list above
compound	NPYLR7 ag	NPYLR7 ag max-min
CC(=O)Nc1ccc(SCc2ccc(C(=O)N3C4CCC3CC(Oc3ccc5c(c3)OCO5)C4)cc2)cc1 (stereo not drawn)	-10	-12
CCOC(=O)c1c(C)n(-c2ccc(OCC)cc2)c2ccc(OC)cc12	-6	-14
COc1ccc(Nc2nc(NN)nc(N3CCOCC3)n2)cc1	-8	-13
Cc1ccc(C)c(C(O)c2ncc(-c3ccc(C(F)(F)F)cc3)[nH]2)c1 (stereo not drawn)	0	0
Cc1n[nH]c(C)c1NC(=O)COc1ccc(Cl)cc1Cl	-15	-18
CCCn1nc(C(=O)N(CCOC)c2nc3ccccc3s2)ccc1=O	-5	-10
CCCCCCc1ccc(C(=O)N(CC(=O)Nc2cc(-c3ccccc3)nn2-c2ccc(F)cc2)Cc2ccccc2)cc1	-5	-9
CCc1cc(C(=O)N2CCCC(N3CCN(c4cccc(C(F)(F)F)c4)CC3)C2)n(C)n1 (stereo not drawn)	1&7	-3&5
OC1CCCc2c(OCc3nnnn3C3CC3)cccc21 (stereo not drawn)	0	-2
O=C1NC2(CCN(C(=O)c3ccccc3Cl)CC2)Nc2ccc(Cl)cc21	4	12
O=C(CCN1CCC(Cn2cccn2)CC1)Nc1cccc(F)c1	5	-1
COc1cc(C(=O)Nc2cccc(NC(C)=O)c2)cc(Cl)c1O	2	11
O=C(CCOc1ccc(Cl)cc1)N1CCOC(COCc2ccccc2F)C1 (stereo not drawn)	21	21
CSCC[C@H](NC(C)=O)C(=O)N1CCC(CCC(=O)Nc2cccc(C)c2)CC1	8	0
OC1CCN(c2ccnc(N3CCC(O)(c4ccc(Cl)cc4)CC3)n2)C1 (stereo not drawn)	-13	-14
CC(=O)N1N=C(c2ccccc2)OC1C(=O)N(C)C1CCN(C)CC1 (stereo not drawn)	15	8
CCC(CC)C(=O)N(CC(=O)NCC(=O)Nc1cccc(C)c1)Cc1ccco1	-4	7
CC(NC(=O)Nc1ccc2c(c1)OCO2)c1ccc(-n2cncn2)cc1 (stereo not drawn)	7	-1
CC(=O)NC1=NN(C(C)=O)C(c2ccco2)S1 (stereo not drawn)	6	3
O=C1C(=O)c2c(C(=O)c3ccccc3)coc2C(Cl)=C1Cl	-2	-7
CCC1(C)NC(=O)N(NC(=O)Cn2cnc3c2c(=O)n(C)c(=O)n3C)C1=O (stereo not drawn)	-2	3
CN(C)C(=O)Cn1ccc2cc(NC(=O)N3CCSCC3)ccc21	5	2
O=C(Cn1cccc(-c2nc(-c3ccc(Br)cc3)no2)c1=O)NCc1ccco1	4	0
CCOc1ccc(N2C(=O)CSC2c2ccccc2N)cc1 (stereo not drawn)	-7	2

(cont.)
SMILES | NPYLR7 ag | NPYLR7 ag max-min
CCOc1ccc(C(=O)Nc2cccc(C(F)(F)F)c2)cc1[N+](=O)[O-] | 0 | 4
CCCN(C)c1nc(SCc2cccc(C(=O)NCc3ccco3)c2)nc(C)c1C | -9 | 5
COc1cc2c(cc1OC)CN(CN1C(=O)NC3(CCN(C)CC3)C1=O)CC2 | 12 | 12
CC(C)c1cc(C2CCCN2Cc2cccc(C(=O)Nc3cn(C)nn3)c2)no1 (stereo not drawn) | 19 | 8
COCCN1C(=O)C(=Cc2ccc(Br)cc2)SC1=S | -1 | 1
COc1cc(C)ccc1OCc1nc(C(=O)NC2CC2)cs1 | 20 | 22
Cc1ccc(N2CCCC(NCC3CCCn4ccnc43)C2=O)cc1 (stereo not drawn) | 0&6 | -1&9
CN(CC(F)F)C(=O)c1ccc(CS(=O)(=O)C(F)F)cc1 | 3 | 1
O=C1OC(c2ccc(Cl)c([N+](=O)[O-])c2)=N/C1=C\C=C\c1ccccc1 | 2 | -7
OCC(CNc1nc(N2CCCC2)nc(N2CCCC2)n1)Cc1ccco1 (stereo not drawn) | -2 | 2
Cc1ccc(N2C(=O)CC(C(=O)NC(C)C)C2c2cccs2)cc1 (stereo not drawn) | 0 | 1
CCCC(=O)N1CCCC(C(=O)C(C#N)C(=O)NC(C)C)C1 (stereo not drawn) | 10 | 7
O=C(Cn1nc(-c2ccccc2)c2ccccc2c1=O)N1CCCCC1 | 5 | 7
CCNC(=O)[C@@H]1C[C@@H](N)CN1Cc1cc2c(cc1OC)CCC2 | 0 | -6
CNc1cc(-c2ccc(F)cc2F)ncn1 | 1 | -1
